Source: PubChem BioAssay
Ab BasE inh = inhibitors of Acinetobacter baumannii siderophore enzyme BasE; purified BasE, fluorescence polarization binding displacement; inhibition, % (concentration not given with the values); 0.1% of 84,000 active;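 active = both replicates above 25% with normal brightness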;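 note: 0% = negative plate control signal and 100% = positive plate control signal; stock transfer was 100 nL into about 30 µL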
KSHV LANA nucl = inhibitors of KSHV LANA binding to nucleosomes; AID 720717; z-score (concentration not given with the values); FITC-LANA1-23 / chicken nucleosome fluorescence polarization; stronger effect = lower value; 0.3% of 51,000 active;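 active = both repeat wells score below -2 in polarization z-score versus plate sample wells, excluding overly bright wells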;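 note: 100 nL library stock added to about 30 µL; numbers are from one replicate; some results filed as inactive read as strong as hits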
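Assay system: purified chicken nucleosomes with FITC-labelled LANA N-terminal peptide (1-23) / Probe or stimulus: 50 nM FITC-LANA1-23 probe / Compound dosing: pin-transferred compound, 100 nL / Times: compound with peptide–nucleosome mix 10–45 min at room temperature / Technique: fluorescence polarization, 480 nm excitation, 535 nm parallel and perpendicular emission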
Numbers without * were called inactive; . = not tested or not shown; & = joins results of further samples. A portion of the library. The share of hits here may be higher or lower than overall.

molecule	Ab BasE inh	KSHV LANA nucl
CCN1CCN(Cc2ccc(NC(=O)c3cc4ccc5cccnc5c4[nH]3)cc2)CC1	-33	.
Cc1ccc(S(=O)Cc2ccc(C(=O)NC3CCCC(C)C3C)o2)cc1 (stereo not given)	-1.0	0.13
N#C/C=N/N(c1ccccc1)c1ccccc1	-2.5	.
COc1cccc(-c2nnn(CC(=O)N3CCCC3)n2)c1	0.4	.
O=C(Nc1cccnc1)OCC(F)(F)F	1.0	.
CCC(C)NC(=O)COc1ccc(Br)c(C)c1 (stereo not given)	3.8	-0.71
COC(=O)C1=C(C)N(C)C(=O)N(C)C1c1ccc(O)cc1 (stereo not given)	2.4	0.11
O=c1[nH]ncc(N2CCCCCC2)c1Cl	0.5	.
COc1ccccc1N1C(=O)C(Cc2ccccc2)N=C1N1CCC(C)CC1 (stereo not given)	0.0	0.25
COc1cc(Br)cc2cc(C(=O)N3CCN(c4ccccn4)CC3)c(=O)oc12	-1.5	0.84
O=C(c1cccc(Cl)c1)c1nnc(-c2ccccc2)o1	-0.1	.
Cc1ccc2c(c1)-c1c(cnn1CC(=O)Nc1ccc(S(=O)(=O)N3CCCCC3)cc1)CO2	-0.5	0.12
O=C1CC(c2ccco2)CC2=C1C(c1ccc(Cl)cc1)n1ncnc1N2 (stereo not given)	0.9	1.1
CC1CCCCN1C(=O)Nc1c[nH]c2ccccc12 (stereo not given)	-2.3	-0.41
Cc1nc(-c2cccc(NC(=O)CN3CCN(S(=O)(=O)Cc4ccccc4)CC3)c2)cs1	-2.2	.
N#C/C=C/N1CCc2ccccc2C1	1.3	.
C=CCN1C(=S)NC2CC1(C)Oc1c(OCC)cccc12 (stereo not given)	1.3	-0.35
NNC(=O)CS(=O)(=O)c1ccc(C(F)(F)F)cn1	2.8	.
CC(C)N(Cc1nnc(-c2ccccc2Cl)o1)C(=O)CCN1C(=O)NC2(CCCC2)C1=O	0.9	.
O=C(O)CSc1nnc2nnc3ccccc3n12	2.3	-0.58
Cc1cc(C)c(CO)c(C)c1CO	0.1	-0.41
O=C1OCCC1N1C(=O)c2ccccc2S1(=O)=O (stereo not given)	1.6	.
Cc1cc(C(=O)O)ccc1-c1ccc(/C=N/n2cnnc2)o1	19	-0.51
Cc1noc(C)c1CN(C(=S)NC1CC1)c1ccccc1	0.8	.
CC(C)C(NC(=O)c1ccc(Cl)nc1)c1ccc2c(c1)OCCCO2 (stereo not given)	-1.1	.
Cc1[nH]n(-c2ccccc2)c(=O)c1CCC(=O)O	0.5	.
Cc1ccc2cc3c(nc2c1)OCC3	-3.0	0.76
CC(C)(C)c1ccc(C(=O)NC2CCSC2=O)cc1 (stereo not given)	-3.1	1.2
O=C(Nc1ccc([N+](=O)[O-])cc1Cl)c1cc(Cl)ccc1O	-3.3	0.88&-0.3
CN(C)S(=O)(=O)c1cccc(COC(=O)c2cn(-c3ccccc3)nc2-c2cccs2)c1	0.1	.
CC(C)=NNC(=O)Cc1c[nH]c2cccc(OCC(O)CNC(C)(C)C)c12 (stereo not given)	1.3	0.039
CC(C)[C@H](N)C(=O)OCCOCn1cnc2c(=O)[nH]c(N)nc21	-0.3	-0.71&0.0065&-0.29
CCCCn1c(C2CC(=O)N(Cc3ccccc3)C2)nc2ccccc21 (stereo not given)	0.7	.
CCOC(=O)N1CCN(C(=O)CCN2C(=O)/C(=C/C=C/c3ccccc3)SC2=S)CC1	1.6	.
O=C1N/C(=N\c2ccccn2)SC1Cc1ccccc1 (stereo not given)	0.7	-0.57
COC(=O)C(NC(=O)c1cccnc1Cl)C(C)C (stereo not given)	0.0	.
Cc1ccc(-c2nn(CCC(=O)NC(C)C)c(=O)c3ccccc23)cc1	2.5	-0.36
O=C(NCc1csc(-c2cccs2)n1)Nc1cccc(Cl)c1	-0.4	.
O=C(c1oc(=O)c2ccccc2c1-c1ccccc1)N1CCN(C2CCCCC2)CC1	0.1	-0.33
Cc1cccc(CSc2nnc(CCC(=O)O)c(=O)[nH]2)c1	1.8	-2.6
CC(C)OC(=O)[C@@H]1CCN[C@@H]1c1ccccc1	2.0	0.69
CCOc1cccc2cc(C(=O)NC3CC(C)(C)NC(C)(C)C3)c(=O)oc12	0.8	.
O=C1CSc2nnc(-c3cccs3)n21	-0.5	-0.42
CCOc1ncccc1C(=O)OCc1nc2ccccc2s1	-1.1	.
N#CCSc1ccc2c(c1)OCCO2	-3.0	.
CC1(C)Cc2nc3sc4c(NCCO)ncnc4c3cc2CO1	-0.4	0.33
CNC(=O)c1cc2c(=O)n3ccccc3nc2n1C	2.1	.
O=C(Nc1ccc2oc(-c3cccnc3)nc2c1)c1cccnc1Cl	-1.2	2.1
CCOC(=O)N1CCC(NC(=O)c2ccc(CO)c(C(=O)NC3CCN(C(=O)OCC)CC3)c2)CC1	0.1	0.74
COc1cccc(OCc2nc3ccccc3c(=O)n2N)c1	3.2	-0.96
O=C(NC1CCCC1)c1c(F)c(F)c(F)c(F)c1F	-1.7	-0.71
Cn1c(SCc2ccccc2)nnc1-c1ccccc1	-0.4	-0.55
O=C(NC1CCCC1)C(Cc1ccccc1)NS(=O)(=O)c1cccs1 (stereo not given)	0.3	-0.67
COc1ccc(-c2cnn(-c3ccccc3)c2N)cc1OC	1.7	.
O=C(NC(=O)c1ccccc1)Nc1cc(N2CCCCC2)ncn1	-0.1	-0.31
CCCNc1nc(Cl)nc(Cl)n1	-3.1	0.33
CC1(C)OC(=O)C(=CNc2ccccc2O)C(=O)O1	1.5	-0.08
CN1C(CC(=O)c2ccccc2)CCCC1CC(O)c1ccccc1 (stereo not given)	-2.1	0.19
CC(C(=O)N1CCN(Cc2ccccc2)CC1)N1CCN(S(=O)(=O)c2cccc(F)c2)CC1 (stereo not given)	2.8	.
O=C(/C=C1\Sc2ccccc2NC1=O)NC1CCCCC1	0.6	-0.76

Remaining list, next part
molecule	Ab BasE inh	KSHV LANA nucl
Cc1ccc2c(cnn2C(=O)CCCC(=O)N2CCc3ccccc32)c1	-1.1	0.92
CCNC(=O)Nc1ccc2nc(C)n(Cc3cccc(Cl)c3)c(=O)c2c1	-25	-1.2
CC(=O)Nc1ccc(S(=O)(=O)NC2=NCN(C)CN2)cc1	1.5	.
CC(C)C(=O)N1c2ncnn2C(c2ccccc2)CC1c1ccccc1 (stereo not given)	1.2	-0.14
O=C(Nc1nnc(C2CC2)s1)C1Cc2ccccc2CN1C(=O)c1ccco1 (stereo not given)	-5.5	.
CCc1c(C(=O)Nc2ccncc2)csc1C	-3.1	0.94
Fc1cc(F)c2nc(N3CCN(c4nc5ccccc5s4)CC3)sc2c1	-0.6	-0.35
Cc1nn2c(N(C)CCO)c3c(nc2c1-c1ccc(F)cc1)CCCC3	-2.0	-0.9
FC(F)Oc1ccccc1-n1cccc1	-0.2	.
Cc1cccc(-n2ncc3ccccc3c2=O)c1	-2.8	.
CC(C(=O)NC1CC1)N(c1cccc(Cl)c1)S(C)(=O)=O (stereo not given)	-0.9	0.75
OCC(CO)(CO)NC(=S)Nc1ccc(F)c(Cl)c1	0.5	-0.079
COc1cccc(OC(=O)N2CCOCC2)c1	-3.9	1.1
O=C(COC(=O)c1cccc(N2C(=O)c3ccccc3C2=O)c1)NCc1ccco1	0.8	.
COc1ccc(C(=O)Nc2ccc(-c3nc4ccccc4o3)cc2)cc1OC	0.7	-0.9

A few values from above:
Cc1ccc(-c2nn(CCC(=O)NC(C)C)c(=O)c3ccccc23)cc1 – KSHV LANA nucl = -0.36
CC(C)C(=O)N1c2ncnn2C(c2ccccc2)CC1c1ccccc1 (stereo not given) – Ab BasE inh = 1.2
COc1cccc(OCc2nc3ccccc3c(=O)n2N)c1 – KSHV LANA nucl = -0.96

Continuation:
molecule	Ab BasE inh	KSHV LANA nucl
COc1ccc2c(CC(=O)OCc3cc(=O)oc4cc(OC)ccc34)coc2c1	-1.9	.
Cc1cccc(Oc2coc3cc(OC(=O)c4cccs4)ccc3c2=O)c1	1.3	.
CCN(CC)S(=O)(=O)c1ccc2c(c1)n(C)c(=O)c(=O)n2C	-0.5	1.4
Cc1ccc(Cn2c(=O)c3ccccc3n3c(SCC(=O)OC(C)(C)C)nnc23)cc1	0.4	.
CCn1c(C(C)N2CCCCC2)nc2ccccc21 (stereo not given)	1.4	-0.6
CCn1ncc(NC(=S)NCCc2ccccc2)c1C(N)=O	1.7	-0.29
Nc1nc(Cl)nc2c1ncn2[C@@H]1O[C@H](CO)[C@@H](O)[C@@H]1F	.	1.9
COc1ccccc1N1CCN(CCCCNS(=O)(=O)c2ccc(Cl)c(Cl)c2)CC1	-2.7	-1
C/C(=N\O)c1sc2ccc(Cl)cc2c1C	1.4	0.19
O=C(O)c1noc2c1CCCC2	1.6	0.086
Clc1nc(CN2CCCCC2)nc2sc3c(c12)CCC3	-1.1	.
CC(NC1CC(C)N(C)CC1C)c1ccccc1 (stereo not given)	-0.4	0.88
Nc1nonc1-c1noc(COc2c(F)c(F)cc(F)c2F)n1	2.9	-0.55
CN(Cc1nnc(-c2ccccc2)o1)C(=O)Nc1ccc(F)cc1	0.1	0.11
CC(C(=O)N1c2ccccc2CCc2ccccc21)n1nnc(-c2ccc(N(C)C)cc2)n1 (stereo not given)	-0.4	0.39

One compound at a time (already shown).
CC(C)[C@H](N)C(=O)OCCOCn1cnc2c(=O)[nH]c(N)nc21 as listed: Ab BasE inh = -0.3; KSHV LANA nucl = -0.71&0.0065&-0.29
O=C1CC(c2ccco2)CC2=C1C(c1ccc(Cl)cc1)n1ncnc1N2 (stereo not given) as listed: Ab BasE inh = 0.9; KSHV LANA nucl = 1.1

Later entries:
molecule	Ab BasE inh	KSHV LANA nucl
CC(=O)Nc1nc(C)cc2c1c(=O)oc1ccccc12	0.1	.
CN(CCC#N)C(=O)Cc1ccc(F)cc1	1.8	.
Fc1ccc(C2CN3C(=N2)C=Cc2ccccc23)cc1 (stereo not given)	1.0	.
CCCN1CCN(CCCNC(=O)c2ccc3c(c2)NC(=O)c2ccccc2S3)CC1	-11	0.063
CCCNC(=S)Nc1ccccc1Br	-0.9	.
Cc1ccc(S(=O)(=O)Nc2nc3ccccc3nc2Nc2ccc(S(=O)(=O)Nc3onc(C)c3C)cc2)cc1	3.1	.
Nc1ccc2oc(=O)c(-c3ccccc3)cc2c1	0.8	.
COC(=O)c1cc(C)sc1NC(=O)C1CC(=O)NN1C (stereo not given)	2.1	0.51
CC1CCCC(NCC(=O)Nc2ccc(C(N)=O)cc2)C1C (stereo not given)	-3.6	.
COc1ccc(NC(=S)NC(C)(C)C)cc1OC	4.1	.
CSc1nc2ccc(NC(=O)C(C)(C)C)cc2s1	-1.2	.
CC1CCN(S(=O)(=O)c2c[nH]c(=O)[nH]c2=O)CC1	2.1	-0.34
Cc1c(N(C)C)c(=O)n(-c2ccccc2)n1C	-3.7	-0.027&1.1
CC[n+]1cccc(-c2nc3ccccc3o2)c1	0.7	.
COC(=O)C(NC(=O)c1ccc(Cl)cc1)C(F)(F)F (stereo not given)	7.1	0.18

The closing 2 records of the section above come first, to join the parts.
molecule	Ab BasE inh	KSHV LANA nucl
CC[n+]1cccc(-c2nc3ccccc3o2)c1	0.7	.
COC(=O)C(NC(=O)c1ccc(Cl)cc1)C(F)(F)F (stereo not given)	7.1	0.18
O=c1c(-c2cnn(-c3ccccc3)c2)coc2c3c(ccc12)OCO3	2.6	0.69
Cc1ccc(S(=O)(=O)N2CCN(CCC(=O)O)CC2)cc1	3.0	-1.1
O=C(O)c1ccccc1OCC1CCCO1 (stereo not given)	1.3	.
CCC(=O)Nc1c(-c2ccc(OC)cc2)c(=O)c2ccccc2n1C	.	1.5
O=C(c1ccccc1)c1ccc2nc(NCC3CCCO3)c3nncn3c2c1 (stereo not given)	-1.8	.
CCCCOc1ccc(C(=O)Nc2cc(-c3ccccc3)no2)cc1	-1.7	-0.39
O=C(CN1Cc2ccccc2C1=O)Nc1cnc2ccccc2c1	-0.9	-0.98
Cc1cc(SCC(=O)OCc2c(C)noc2C)c(C)cc1Br	-0.8	.
Cc1nn2c(=S)[nH]nc2[nH]c1=O	1.7	.
O=C(O)CSC12CC3CC(CC(C3)C1)C2	1.9	.
COc1cccc(C(=O)NC2CC(C)(C)NC(C)(C)C2)c1	1.6	.
Cc1oc(C(=O)O)cc1COc1ccc2c(C)c(Cc3ccccc3)c(=O)oc2c1C	0.7	.
CCCn1c(N)c(N(CCOC)C(C)=O)c(=O)n(CC(=O)Nc2cc(Cl)cc(Cl)c2)c1=O	0.2	.
Cc1noc(C)c1CC(=O)Nc1cccc(-n2cnnn2)c1	0.7	.
